# Compound activity from PubChem BioAssay.
# Vaccinia mCherry = vaccinia inhibition (mCherry reporter). hit rate 0.63% among 310,000. Potency, µM (doses to about 36.5 µM), for the others: at the top dose activity change, negative = inhibition, usual class: inhibitors. AID 720579. Vaccinia virus mCherry reporter infection, fluorescence; about a quarter of the inactives have no number; active = well fitted inhibition curve with a large enough effect; inconclusive = small, poorly fitted or top-dose-only effect; inactive = no such curve, though single readings can be large or run the other way; tested in A549 cells; further: nearly all actives have a fitted effect of over 35% in size; inactives centre near -10
# VACV Venus inh = vaccinia inhibition (Venus reporter); Vaccinia virus Venus reporter expression, fluorescence; Potency, µM (doses to about 36.5 µM), for the others: top-dose activity change, negative = inhibition, usual class: inhibitors; hit rate 0.46% among 330,000; active means well fitted inhibition curve with a large enough effect; inconclusive means small, poorly fitted or top-dose-only effect; inactive means no such curve, though single readings can be large or run the other way; tested in A549 cells; further: nearly all actives have a fitted effect of over 30% in size; inactives centre near -10
# * marks the source's active call; other numbers are inactive results; i = inactive; ? = inconclusive; . = no result given; & = joins results of further samples; [ ] = remark or other dose. On the % scale 0 is the no-effect control and ±100 the full control effect; potency means the concentration at half of the fitted maximal effect. Hits appear at their usual frequency. Share with any hit: about 0.88%.
# The first three entries (preview)
SMILES,Vaccinia mCherry,VACV Venus inh
COc1ccc(NC(=S)NC(=O)c2csnn2)cc1,-14%,-15%
COc1ccc(NC(=O)N(Cc2ccc(C)cc2)Cc2cccnc2)c(OC)c1,1%,-5%
O=C(COC(=O)c1cccc(S(=O)(=O)N2CCOCC2)c1)NCc1ccc2c(c1)OCO2,-3%,4%

# The list itself, from the start:
SMILES,Vaccinia mCherry,VACV Venus inh
COc1ccc(NC(=S)NC(=O)c2csnn2)cc1,-14%,-15%
COc1ccc(NC(=O)N(Cc2ccc(C)cc2)Cc2cccnc2)c(OC)c1,1%,-5%
O=C(COC(=O)c1cccc(S(=O)(=O)N2CCOCC2)c1)NCc1ccc2c(c1)OCO2,-3%,4%
c1ccc([C@H]2CN3C(=N2)Sc2ccccc23)cc1,i,-17%
Cc1sc2nc(CC(N)=O)[nH]c(=O)c2c1-c1ccccc1,-11%,-4%
Cc1ccc(S(=O)(=O)N/N=C\c2cn(-c3ccccc3)nc2-c2ccccc2)cc1,-3%,-18%
O=C(Nc1ncccn1)c1cc([N+](=O)[O-])cc([N+](=O)[O-])c1,-14%,-3%
CCOc1ccccc1CN1CCN(S(C)(=O)=O)CC1,-6%,-4%
COc1cc(OC)c(/C=C/c2ccc3ccccc3n2)c(OC)c1,?,-24%
CCOC(=O)N1CCc2c(sc3c2c(=O)n(-c2ccc(CC)cc2)c(=O)n3CC(=O)Nc2ccc(C)cc2)C1,-14%,-21%
COC(=O)C1=C(c2cccc(C#N)c2)C[C@@H]2CC[C@H]1N2C(=O)N1CCC(C)CC1,-20%,-16%
COc1ccc(CNC(=O)c2ccc3c(c2)nc2n3CCC(C)C2)c(OC)c1 (centres undefined),-13%,-7%
O=C(CCN1CCC(c2ccccc2)C1)c1cccs1 (centres undefined),-16%,-9%
Cc1cc(C(=O)N/N=C2\CC(=O)CC(C)(C)C2)n[nH]1,-9%,0%
CN(C)S(=O)(=O)c1cccc(NC(=O)c2ccc(COc3ccccc3)cc2)c1,i,-17%
CCOc1cc(C(=O)Nc2ccc(S(=O)(=O)N3CCOCC3)cc2)cc(OCC)c1OCC,-15%[1.46 µM],-14%
Cc1ccc(Cl)cc1N(C)C(=O)Cn1ncc2c([nH]c3ccccc32)c1=O,-9%[7.34 µM],-3%[7.34 µM]
COC(=O)C1CCN(Cc2ccc3c(c2)CN(C(=O)C(C)N2CCOCC2)CCO3)CC1 (centres undefined),-14%,-5%
CCC(CC)NC(=O)c1oc2ccccc2c1COc1ccccc1,-14%,-17%
C[C@H](NC(=O)c1ccccc1)C(=O)N1CCC2(CC1)NCCc1[nH]cnc12,i,-3%
COc1ccc(CNC(=O)CN2C(=O)CSc3ccc(S(=O)(=O)N4CCCC4)cc32)cc1,-3%,-5%
CCOC(=O)CNc1nc(Oc2ccc(=O)n(C)n2)nc(N(CC)CC)n1,8%,-4%
CCC(NC(=O)c1ccccc1NC(=O)c1ccccc1)C(=O)O (centres undefined),-8%,-4%
O=C(OCc1cc(=O)n2c(n1)sc1ccccc12)c1cccc(O)c1,-8%,-5%
O=C(O)C1C(C(=O)O)C2(Cl)C(Cl)=C(Cl)C1(Cl)C2(Cl)Cl (centres undefined),-1%,-13%
NC(=O)c1ccc(NC(=O)COC(=O)CCCOc2ccccc2)cc1,i,-9%
CCn1ccc(C(=O)NC2=C(C#N)CCC2)n1,-9%,-5%
COc1ncnc2c1ncn2CCCNc1ccc(C)c(C)c1,-13%,-19%
CCCSc1cc(N)cc([N+](=O)[O-])c1,-16%,-13%
Cc1ccc(N=Nc2ccc(N)cc2C)c(S(N)(=O)=O)c1,-30%,-14%

# An excerpt of these results, as tab-separated lines:
molecule	Vaccinia mCherry	VACV Venus inh
CCOC(=O)CNc1nc(Oc2ccc(=O)n(C)n2)nc(N(CC)CC)n1	8%	-4%
O=C(O)C1C(C(=O)O)C2(Cl)C(Cl)=C(Cl)C1(Cl)C2(Cl)Cl (centres undefined)	-1%	-13%
CCn1ccc(C(=O)NC2=C(C#N)CCC2)n1	-9%	-5%
CCOc1cc(C(=O)Nc2ccc(S(=O)(=O)N3CCOCC3)cc2)cc(OCC)c1OCC	-15%[1.46 µM]	-14%

# (further entries)
SMILES,Vaccinia mCherry,VACV Venus inh
O=C(O)c1cc([N+](=O)[O-])ccc1-c1ccc([N+](=O)[O-])cc1C(=O)O,?,3%
COc1ccccc1NC(=O)Cn1c(=O)oc2ccccc21,-16%,-2%
COc1cc(NC(=O)CN2C(=O)NC(c3ccccc3)(c3ccccc3)C2=O)c(C)cc1[N+](=O)[O-],?,?
CC(=NCCc1ccccc1)C1=C(O)CCC1=O,i,-14%
CCOC(=O)c1c(NC(=O)C2CCCO2)sc(C(N)=O)c1C (centres undefined),-20%,-11%
Cc1ccc(-c2csc(NC(=O)C3=COCCO3)n2)cc1,-5%,-29%
CC(C)C[C@H]1COc2cccc(N(C)CCO)c2S(=O)(=O)N1,22%,-2%
COc1ccc(NS(=O)(=O)c2ccc(C)c(NC(=O)NC3CCCCC3)c2)cc1,i,-30%
CC(=O)Nc1cccc(C(=O)NC2CCCc3c2cnn3-c2cc(C)cc(C)c2)c1 (centres undefined),-12%,-9%
CC1=CC(C)(C)N2C(=O)C3(NCCc4c3[nH]c3ccccc43)c3cccc1c32 (centres undefined),-8%,-3%
CC1(C)Cc2c(C#N)c(SCc3ccccc3)nc(N3CCOCC3)c2CO1,-7%,-6%
O=C(O)c1cccc(S(=O)(=O)N2CCc3ccccc3C2)c1,i,-13%
COC(=O)c1cn([C@H]2C[C@@H](C(=O)N3CCCCCC3)N(Cc3ccsc3)C2)nn1,-10%,-7%
CCOC(=O)c1c(N)sc(C(=O)OCCOC)c1C,-27%,-15%
CC(=O)c1cccc(NC(=O)N2C3CCC2CC(O)(c2cccnc2)C3)c1 (centres undefined),-6%,-2%
C(=C\c1ccnc2ccccc12)/c1cc2c3c(c1)CCCN3CCC2,?,?
COc1ccc(-c2cc(C(=O)NC3CCCC3)c3ccccc3n2)cc1OC,2%,10%
COc1cc(NC(=O)Cn2nc(C(F)(F)F)c(Br)c2C)cc([N+](=O)[O-])c1,-22%,?
Cc1cc(C(=O)Nc2ccc(N3CCOCC3)c3nonc23)ccc1[N+](=O)[O-],-3%,10%
CCOC(=O)c1cnc2c(OC)cccc2c1N1CCN(c2ccccc2OC)CC1,?,-22%
CCOC(=O)N1CCC(NC(=O)c2cc(S(=O)(=O)NCCc3ccccc3)ccc2F)CC1,-12%,-15%
Cc1cc(Cl)c(S(=O)(=O)Nc2cccc(O)c2)cc1OCC(N)=O,-20%,-14%
CCCN(Cc1nnc(-c2ccccc2Cl)o1)C(=O)c1cc2ccccc2o1,-20%,-2%
CCn1c(=O)c(C(=O)NCCCO)c(O)c2ccccc21,.,-12%
O=C(Nc1ccc([N+](=O)[O-])cc1Br)c1cc2ccccc2nc1Cl,i,1%
CCOc1ccc(C(=O)c2cnc3ccc(Cl)cc3c2S(=O)(=O)c2ccc(C)cc2)cc1,-14%,-10%
COc1ccc(-c2nc3ccccc3o2)cc1NC(=O)c1ccc(-c2ccc(C)c(Cl)c2)o1,-3%,3%
O=C(CCNS(=O)(=O)c1ccc2c(c1)CCN2C(=O)C1CC1)Nc1ccc(F)cc1F,-9%,1%
CN(C)/C=N/c1ncn(-c2ncc(C(F)(F)F)cc2Cl)n1,i,-6%
Nc1nc2ccc(Cc3ccncc3)cc2s1,-3%,-10%
Cc1ccc(C)c(N2CCN(C(=O)c3nn(C)c4c3CS(=O)(=O)c3ccccc3-4)CC2)c1,-16%,-7%
O=C(CSc1nc2ccccc2c(=O)n1Cc1ccco1)N1CCN(c2ccccc2)CC1,-13%,-7%
CC1(C)CC(O)CC(C)(C)N1CC(O)COCc1ccccc1 (centres undefined),-13%,-10%
O=C(CCc1ccccc1)Nc1cccnc1Cl,i,-14%
COc1cccc(C(=O)CN2CCN(S(=O)(=O)c3ccc(Cl)cc3)CC2)c1,-7%,-1%
Cc1ccc(Nc2nc3ccccc3c3nncn23)c(Cl)c1,-9%,-4%
CCc1ccc2c(c1)C(c1ccc(N3CCOCC3)cc1)=NNC(c1ccncc1)=N2,i,-2%
CN1CCc2c(sc3nc(NN)n(Cc4ccccc4)c(=O)c23)C1,i,2%
CC(CNC(=O)c1ccc2c(c1)nc1n2CCCCC1)c1ccccc1 (centres undefined),-12%,-13%
Cc1cc(N/N=C/c2ccccc2)nc(N)n1,-21%,-6%
O=C(CNC(=S)N(Cc1ccccc1)Cc1ccccc1F)NCCc1ccccc1,-4%,-24%
CCOC(=O)c1c(C)[nH]c(-c2csc(C)n2)c1C,-6%,-4%
O=C(Cc1ccccc1)Nc1nnc(-c2ccco2)s1,.,-6%
Cc1ccc(-c2nn(CC(=O)Nc3cccc(C(F)(F)F)c3)c(=O)c3ccccc23)cc1,-9%,14%
COc1ccc(S(=O)(=O)N2CCOCC2)cc1NC(=O)c1ccccc1-c1ccc(C(F)(F)F)cc1,-21%,-9%
CC(C)(C)C(=O)c1c(N)[nH]c(C(=O)c2ccccc2)c1-c1ccc(Cl)cc1,3%,4%
COc1ccc(NC(=S)NCC2CCN(c3ccc(OC)cc3)C2)cc1 (centres undefined),-26%,-15%
COC(=O)C1=C(c2cccc(OC)c2OC)C[C@@H]2CC[C@H]1N2C(=O)NCc1ccco1,i,-11%
CCCCn1c(N)c(N(CCC(C)C)C(=O)C2CC(=O)N(Cc3ccc(C)cc3)C2)c(=O)[nH]c1=O (centres undefined),-19%,-20%
COc1cccc(C(=O)Nc2cc(=O)n(C)c(=O)n2C)c1,-1%,1%
COc1ccc(N2CCN(C(=O)CNS(=O)(=O)c3ccc(Br)s3)CC2)cc1,?,-5%&-15%
Cc1nnc(N2C(=O)C(=O)/C(=C(\O)c3ccc4c(c3)CC(C)O4)C2c2ccccc2)s1 (centres undefined),i,-2%
O=C(Cc1ccc(Cl)cc1)Nc1ccc(CN2CCCCC2)cc1,i,-14%
CCOc1ccc(C(=O)Nc2ccc(N3CCN(C(C)=O)CC3)cc2)cc1[N+](=O)[O-],?,-6%
COc1ccc(OC)c(C(=O)CN2CCN(S(=O)(=O)c3ccc(Br)cc3)CC2)c1,.,-18%
Cc1noc(C)c1C(=O)OCC(=O)Nc1cccc(S(=O)(=O)N(C)C)c1,-1%,-17%
Cn1c2ccc(F)cc2c2ncn(CCN3CCOCC3)c(=O)c21,-14%,-1%
Cc1c(OC(C)C(=O)NCCCn2ccnc2)ccc2c3c(c(=O)oc12)CCC3 (centres undefined),i,-11%
Cc1ccccc1OCCC(=O)N(Cc1ccccc1)c1c(N)n(Cc2ccccc2)c(=O)[nH]c1=O,-10%,-21%
CCC(CC)c1nnc(NC(=O)c2cccnc2SC)s1,-16%,-6%

# (continued)
SMILES,Vaccinia mCherry,VACV Venus inh
CC(C)Cn1[nH]c2c3c(ccc2c1=O)C(=O)c1ccccc1C3=O,.,-27%
COc1ccc(NC(=O)c2cc(S(=O)(=O)N3CCCCC3)c[nH]2)cc1Cl,-15%,-20%&-18%
CCCn1ncc(CN2CCC(CO)(Cc3ccc(OC)cc3)CC2)c1C,i,-9%
Cc1oncc1C(=O)NC1CCCCC1,i,-1%
O=C(Nc1ccccc1)C1C2CCC3C(CCC21)C3(Cl)Cl (centres undefined),.,?
Cc1cnc(SCc2ccccn2)nc1C1CCCN(C(=O)c2ccc3c(c2)OCCO3)C1 (centres undefined),-12%,-6%
CCn1c(=O)c2sccc2n2c(CCCC(=O)N3CCN(c4ccc(F)cc4)CC3)nnc12,-4%,-6%
C[C@]12CCC(=O)C=C1CC[C@@H]1[C@@H]2[C@@H](O)C[C@]2(C=O)[C@@H](C(=O)CO)CC[C@@H]12,-7%,-14%
Cc1ccc(S(=O)(=O)Nc2ccc(Br)cc2C(NCC(=O)O)c2ccccc2)cc1 (centres undefined),i,-10%
CC(=O)N1CCN(CC(O)Cn2c3ccccc3c3ccccc32)CC1 (centres undefined),i,5%
Cc1c(C(=O)NCc2ccccn2)oc2ccc(S(=O)(=O)N3CCOCC3)cc12,-7%,-4%
O=C(CNC(=O)c1ccc(Br)cc1)OCc1cc([N+](=O)[O-])cc2c1OCOC2,-8%,-7%
CN(c1ccc(C(=O)NCCSCc2ccc(Cl)cc2)cc1)S(=O)(=O)c1ccccc1,-9%,-12%
Cc1ccc(-c2nc3c(c(SCC(=O)Nc4ccccc4Cl)n2)Cc2c(CO)cnc(C)c2O3)cc1,-4%,-3%
O=[N+]([O-])c1cc(S(=O)(=O)Nc2ccccc2)ccc1-n1nnc2ccccc21,.,-25%

# Gathered by group, the compounds so far containing a COOH group.
SMILES,Vaccinia mCherry,VACV Venus inh
CCC(NC(=O)c1ccccc1NC(=O)c1ccccc1)C(=O)O (centres undefined),-8%,-4%
O=C(O)C1C(C(=O)O)C2(Cl)C(Cl)=C(Cl)C1(Cl)C2(Cl)Cl (centres undefined),-1%,-13%
O=C(O)c1cc([N+](=O)[O-])ccc1-c1ccc([N+](=O)[O-])cc1C(=O)O,?,3%
O=C(O)c1cccc(S(=O)(=O)N2CCc3ccccc3C2)c1,i,-13%
Cc1ccc(S(=O)(=O)Nc2ccc(Br)cc2C(NCC(=O)O)c2ccccc2)cc1 (centres undefined),i,-10%

# Next entries:
SMILES,Vaccinia mCherry,VACV Venus inh
COc1ccc(/C=N/NC(=O)CCn2nc(C)cc2C)cc1,-4%,0%
CN(C)S(=O)(=O)c1ccc(C(=O)NCCS(=O)(=O)N2CCN(c3ccc(F)cc3)CC2)cc1,-3%,-13%
Fc1ccc(C(CCCn2nnc(-c3cccnc3)n2)c2ccc(F)cc2)cc1,?,?
Cc1cc(Nc2ccc(N(C)C)cc2)n2ncnc2n1,-10%,-7%
CCCOc1ccc(-c2c(C(=O)N/N=C/C3CC=CCC3)nnn2-c2nonc2N)cc1 (centres undefined),?,-8%
CCOC(=O)N1CCN(C(=O)c2cc(COc3cccc(C(F)(F)F)c3)on2)CC1,i,-19%
